# Screens: PubChem, Southern Research Institute
# Vero viability: viability loss in Vero cells – cytotoxicity control for Vif-APOBEC3G degradation inhibitor project, dose response (AID 1117358); CC50 in µM for hits, for the others viability, % at the top dose, mostly 40 µM; Vero viability, CellTiter-Glo ATP luminescence, 72 h; reference of the scale not given here; actives 7% (n = 2,300);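 active = viability down to 80% or less at some dose; inactive = above 80% at all doses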
# * hit, by the source's call. Not all compounds are listed; the hit share may differ from the screen's.
entry | Molecule | Vero viability
1 | CN1CCN(c2ccccc2NC(=O)C(Cc2ccccc2)n2cccc2)CC1 (stereo not given) | 82%
2 | COc1cc2c(cc1NC(=O)CC1SC(N3CCCC3)=NC1=O)oc1ccccc12 (stereo not given) | >40µM*
3 | O=C(CN1C(=O)NC2(CCCC2)C1=O)Nc1nc(-c2ccc(F)cc2)cs1 | 98%
4 | N=C1/C(=C\c2ccc(SCc3ccco3)o2)C(=O)N=C2SC=NN12 | 105%
5 | Cn1cccc1Cc1nnc(SCC(N)=O)n1CCc1ccccc1 | 93%
6 | CCCCS(=O)CC(O)COCC (stereo not given) | 103%
7 | CC(C)(C)c1ccc(S(=O)(=O)NCc2ccc(C(=O)NCc3ccccn3)cc2)cc1 | 97%
8 | COC(=O)c1ccc(Cl)c(NC(=O)CN(c2ccc3c(c2)OCO3)S(C)(=O)=O)c1 | 87%
9 | c1cncc(-c2csc(NCc3ccco3)n2)c1 | 112%
10 | COc1ccc(C)cc1NC(=O)C1CC(=O)OC12CCCCC2 (stereo not given) | 98%
11 | COc1ccc(Cl)cc1N(CC(=O)Nc1ccc2c(c1)OCO2)S(C)(=O)=O | 92%
12 | CCOC(=O)CC1COc2ccccc2N1C(=O)c1ccc(C)cc1 (stereo not given) | 91%
13 | Cc1ccc2[nH]c(=O)c(CN(Cc3cccnc3)C(=O)c3ccncc3)cc2c1 | 90%
14 | CCOC(=O)N1CCN(C(=O)c2ccc(NC(=O)c3ccc(C)cc3)cc2)CC1 | 96%
15 | CNS(=O)(=O)c1cccc(C(=O)OCc2cc(Cl)cc3c2OCOC3)c1 | 85%
16 | O=C(CSc1nnc(CCCO)n1-c1ccccc1)NCCc1ccccc1 | 95%
17 | Cc1cc(=O)[nH]c2c1c(C)nn2C1CCCCC1 | 83%
18 | COc1cccc(OC)c1C(=O)n1nc(C)cc1C | 94%
19 | CCCOc1ccc2oc(=O)c3c(c2c1)CCCN3C(=O)CN1CCc2ccccc2C1 | 97%
20 | CC1CCN(Cc2cnc(Cl)s2)CC1 | 86%

# Other entries follow.
entry | Molecule | Vero viability
21 | CCCCn1c(C(C)NC(=O)CC)nc2ccccc21 (stereo not given) | 95%
22 | CCN(CC)c1ccc(C=Nc2ccc(N(C)C)cc2)c(O)c1 | 92%
23 | CCc1ccc(NC(=O)N(CCN2CCOCC2)Cc2ccc3c(c2)CCCN3CC)cc1 | 100%
24 | O=C1CCc2cc(S(=O)(=O)NC(Cc3ccccc3)C(=O)NCC3CCCO3)ccc2N1 (stereo not given) | 97%
25 | Cc1cc(/C=N/n2cnnc2)c(C)n1-c1cccc(Cl)c1 | 90%
26 | Cc1csc(NC(=O)C(NS(=O)(=O)c2ccc(Br)s2)c2ccccc2)n1 (stereo not given) | 96%
27 | Cc1cc(Cl)cc2c1NC(=O)[C@]21[C@@H]2C(=O)N(Cc3ccccc3)C(=O)[C@@H]2[C@@H]2CCCN21 | 96%
28 | COC(=O)C1=C(N)OC2=C(C(=O)CCC2)C1c1cccs1 (stereo not given) | 107%
29 | O=C(O)C1Nc2c(O)cccc2C2C=CCC12 (stereo not given) | >40µM*
30 | Cc1ccc(C(=O)Nc2cccc(C(=O)O)c2)cc1S(=O)(=O)N1CCOCC1 | 95%
31 | CC(C)c1ccc(NC(=O)C(c2ccccc2)N2CCC3(CC2)OCCO3)cc1 (stereo not given) | 104%
32 | COc1ccc(NC(=O)c2ccccc2NC(=O)CSc2ccc(Cl)cc2)cc1 | 103%
33 | CCOc1ccc(N(CC(=O)Nc2cccc(OC)c2)S(=O)(=O)c2c(C)noc2C)cc1 | 84%
34 | O=C(Nc1ccccc1N1CCCC1)c1ccc(Br)o1 | 106%
35 | O=C(NC1CCCCC1)C(c1ccc(F)cc1)N(C(=O)Cc1ccsc1)c1ccc(F)cc1 (stereo not given) | 103%
36 | CCOc1ccc(N(CC(=O)NCc2ccc(F)cc2)S(=O)(=O)c2c(C)noc2C)cc1 | 92%
37 | CCOC(=O)c1[nH]nc(-c2c(O)cc(C)cc2O)c1-c1csc(C)n1 | 101%
38 | COc1ccc(C(=O)N2CCCN(C)CC2)cc1S(=O)(=O)N1CCCc2ccccc21 | 91%
39 | CCOC(=O)NC1(NC2CCCCC2)Oc2ccccc2O1 | 106%
40 | COc1ccc(NC(=O)Nc2cccs2)cc1OC | 108%

# Entries above with an aryl thioether with sulfur outside any ring (4):
entry | Molecule | Vero viability
4 | N=C1/C(=C\c2ccc(SCc3ccco3)o2)C(=O)N=C2SC=NN12 | 105%
5 | Cn1cccc1Cc1nnc(SCC(N)=O)n1CCc1ccccc1 | 93%
16 | O=C(CSc1nnc(CCCO)n1-c1ccccc1)NCCc1ccccc1 | 95%
32 | COc1ccc(NC(=O)c2ccccc2NC(=O)CSc2ccc(Cl)cc2)cc1 | 103%

# More entries follow:
entry | Molecule | Vero viability
41 | N#Cc1ccccc1NC(=O)COC(=O)c1ccc(S(=O)(=O)N2CCCC2)cc1 | 96%
42 | O=C(c1ccc2c(c1)OCCO2)C1CCN(C(=O)c2ccc(F)cc2)CC1 | 111%
43 | COc1cccc(-c2nc3cc(C)ccc3o2)c1 | 95%
44 | CCC(=O)N1CCc2cc(S(=O)(=O)NCCC(=O)NC3CCCc4ccccc43)ccc21 (stereo not given) | 93%
45 | COc1cccc(OC)c1C(=O)NC(C)C12CC3CC(CC(C3)C1)C2 (stereo not given) | 97%
46 | O=C(CSc1nnc(-c2cccs2)o1)OC1CCCCC1 | 93%
47 | CCN(CC)S(=O)(=O)N1CCC(C(=O)NCC2COc3ccccc3O2)CC1 (stereo not given) | 104%
48 | O=C(NC1CCCC1)c1ccc2nc(-c3ccco3)c(-c3ccco3)nc2c1 | 93%
49 | COCCn1nnnc1C(c1cc2ccc(C)cc2[nH]c1=O)N(Cc1ccco1)Cc1cccs1 (stereo not given) | 103%
50 | Cc1ccc(S(=O)(=O)c2c(N)n(NC(=O)C3CC3)c3nc4ccccc4nc23)cc1 | 97%
51 | COc1cccc(-c2cn3nc4c(nc3n2)CCCC4)c1 | 88%
52 | COc1ccccc1N(CC(O)CN1C(=O)NC(C)(C)C1=O)S(=O)(=O)c1ccc(C)cc1 (stereo not given) | 96%
53 | CN1c2ccsc2/C(=N/NC(=O)c2c(F)cccc2F)CS1(=O)=O | 93%
54 | Clc1ccc(-c2nnc(SCc3ccon3)o2)c(Cl)c1 | 100%
55 | O=C1c2ccccc2CC1Sc1nnc(-c2ccccn2)o1 (stereo not given) | 94%
56 | O=c1cc(O)n(-c2ccc(F)cc2)c(=S)[nH]1 | 92%
57 | CCOC(=O)/C(=C/c1c2ccccc2cc2ccccc12)NC(=O)c1ccccc1 | 87%
58 | O=C(N/N=C/C=C\c1ccco1)c1cccnc1 | 97%
59 | Cc1nc2ccccc2n2c(O)c(CC(=O)O)cc12 | 89%
60 | CCOC(=O)C1CCCN(C(=O)c2c(-c3ccccc3Cl)noc2C)C1 (stereo not given) | 99%

# The results go on:
entry | Molecule | Vero viability
61 | Fc1cccc(-c2cc3nc4c(c(NCc5ccco5)n3n2)CCCC4)c1 | 83%
62 | COc1ccc2c(c1OC)C(=O)OC2CC(=O)c1ccc(O)c(O)c1 (stereo not given) | 100%
63 | CC1=C(C(=O)Nc2ccccc2)C(c2ccc(C)o2)n2c(s/c(=C\c3ccco3)c2=O)=N1 (stereo not given) | 107%
64 | O=C1CC(c2c(F)cccc2Cl)C2=C(COC2=O)N1 (stereo not given) | 90%
65 | COc1ccc(S(=O)(=O)NC2CC(C)(C)NC(C)(C)C2)c(C)c1C | 87%
66 | O=C(CCc1ccc(S(=O)(=O)NCCc2ccccc2)cc1)Nc1ccc2c(c1)OCO2 | 97%
67 | CC(C)Oc1ccc(-c2cc(C(=O)NCCN3CCOCC3)c3ccccc3n2)cc1 | 95%
68 | O=c1cc(-c2ccccc2Cl)c2c([nH]1)CCC2 | 89%
69 | CC(C)(C)OC(=O)N1CCCC1C(=O)N1CCc2ccccc21 (stereo not given) | 107%
70 | CCSc1nnc(NC(=O)c2ccc3ccccc3n2)s1 | 93%
71 | CC1CCc2cc(F)ccc2N1C(=O)C1(C)CC1(Cl)Cl (stereo not given) | 91%
72 | Cc1ccc(C(=O)Nc2ccc(O)c(C(=O)O)c2)o1 | 116%
73 | O=C1C(Cl)=C(N2CCOCC2)C(=O)N1c1ccccc1 | 99%
74 | CCn1c(CNc2ccc(Cl)cc2)nnc1SCc1ccccc1 | 94%
75 | CCc1ccc(CNCc2cccnc2)cc1 | 91%
76 | O=C(Nc1cnn(Cc2c(Cl)cccc2Cl)c1)c1ccc([N+](=O)[O-])cc1 | 97%
77 | Cc1ccc(C)n1-c1ccc(C(=O)O)cc1 | 110%
78 | Cn1c(=O)cc(SCC(=O)NCCCN2CCOCC2)c2ccccc21 | 107%
79 | O=C(NCCN1CCOCC1)c1cc(-c2ccc(Br)cc2)on1 | 102%
80 | COc1ccc(-c2nc(C(N)=O)c3[nH]c(=O)n(-c4cccc(Cl)c4)c3n2)cc1OC | 95%

# The closing two compounds of the part above are carried over, then new ones follow:
entry | Molecule | Vero viability
79 | O=C(NCCN1CCOCC1)c1cc(-c2ccc(Br)cc2)on1 | 102%
80 | COc1ccc(-c2nc(C(N)=O)c3[nH]c(=O)n(-c4cccc(Cl)c4)c3n2)cc1OC | 95%
81 | Cc1ccc(OCC(=O)NNC(=O)CCc2ccccc2)cc1 | 98%
82 | CCN(CC(=O)Nc1c(C(=O)OC)[nH]c2ccccc12)c1ccc2c(c1)OCO2 | 95%
83 | Cc1ccc(CCNC(=O)C2CCN(S(=O)(=O)c3ccc4c(c3)CCC(=O)N4)CC2)cc1 | 93%
84 | Clc1ccccc1Nc1c2c(nc3ncnn13)CCC2 | 85%
85 | CCC(=O)Nc1cccc(-c2nc3ccccc3c(=O)o2)c1 | 95%
86 | CCCN(CCC)S(=O)(=O)c1cc(Br)cc2c1N(C(=O)CC)CC2 | 94%
87 | O=C1CCCC/C1=C/Nc1ccc2c(c1)OCO2 | 99%
88 | O=C(CNC(=O)Cn1cnc2sc3c(c2c1=O)CCCC3)NCc1ccccn1 | 102%
89 | O=C(CN1C(=O)C2CC=CCC2C1=O)OCCN1C(=O)c2ccccc2C1=O (stereo not given) | 94%
90 | COc1ccc(CCNC(=O)c2ccc3nc(-c4ccco4)c(-c4ccco4)nc3c2)cc1OC | 102%
91 | Cc1cc(C(=O)O)ccc1-n1c(C)ccc1C | 102%
92 | COc1c(F)c(F)c(C(=O)Nc2ccccc2N2CCN(C(C)=O)CC2)c(F)c1F | 104%
93 | O=C(Cn1cnc2c(nnn2Cc2ccc(F)cc2)c1=O)NCc1ccco1 | 92%
94 | Oc1c(C(c2ccccc2)N2CCN(Cc3ccccc3)CC2)sc2ncnn12 (stereo not given) | 98%
95 | COc1cccc(-c2nc3n(n2)C(c2cccs2)C(C(=O)Nc2cccnc2)=C(C)N3)c1 (stereo not given) | 90%
96 | COC(=O)C1=C(C)NC(=O)/C1=C\c1ccco1 | 101%
97 | CCOC(=O)c1sc2ncnc(N3CCN(C(=O)OCC)CC3)c2c1C | 95%
98 | O=C(Cc1cc(=O)[nH]c(=O)[nH]1)NCC1CCCO1 (stereo not given) | 99%
99 | COCCn1c(Sc2ccc(C)cc2)nc2c1c(=O)[nH]c(=O)n2C | 100%
100 | c1coc(-c2nc3ccccc3nc2-c2ccco2)c1 | 91%

# Two entries picked at random from those above, as already listed:
entry | Molecule | Vero viability
92 | COc1c(F)c(F)c(C(=O)Nc2ccccc2N2CCN(C(C)=O)CC2)c(F)c1F | 104%
93 | O=C(Cn1cnc2c(nnn2Cc2ccc(F)cc2)c1=O)NCc1ccco1 | 92%

# (continued)
entry | Molecule | Vero viability
101 | O=C(CSc1c(Cl)cccc1Cl)N1CCC(c2nc3ccccc3s2)CC1 | 100%
102 | CSc1nc(C)cc(SCC(=O)Nc2ccccc2)n1 | 97%
103 | CCOC(=O)c1c(Nc2ccccc2N)cc(C)nc1C | 90%
104 | COc1ccccc1CNC(=O)COC(=O)c1ccc(NC(N)=O)cc1 | 98%
105 | Cc1ccc(NC(=O)c2ccc(Cl)c(N3C(=O)C=CC3=O)c2)cc1 | 93%
106 | N#Cc1c(-c2ccco2)c2c([nH]c1=S)CCCC2 | 98%

# Some of the entries above in a different format:
(101) O=C(CSc1c(Cl)cccc1Cl)N1CCC(c2nc3ccccc3s2)CC1
  Vero viability: 100%

(102) CSc1nc(C)cc(SCC(=O)Nc2ccccc2)n1
  Vero viability: 97%

(103) CCOC(=O)c1c(Nc2ccccc2N)cc(C)nc1C
  Vero viability: 90%
